ClpP mod = qHTS Assay for Activators of ClpP; ATP-dependent Clp protease proteolytic subunit (Bacillus subtilis (strain 168)), P80244; purified B. subtilis ClpP, FRET peptide cleavage, 20 min; Potency, µM (series often up to 57.5 µM), for the others: top-dose activity change, negative = active; 1.9% of 340,000 active; AID 651965, 2013; active = well fitted falling curve with a large enough effect; inconclusive = small, poorly fitted or top-dose-only effect; inactive = no such curve, though single readings can be large or run the other way; further: potency means the concentration at half of the fitted maximal effect; the source files actives as falling curves though it sought activators and does not explain the sign; nearly all actives have a fitted effect of over 65% in size; many hits overshoot -100%
Target sequence (P80244 whole entry, looked up): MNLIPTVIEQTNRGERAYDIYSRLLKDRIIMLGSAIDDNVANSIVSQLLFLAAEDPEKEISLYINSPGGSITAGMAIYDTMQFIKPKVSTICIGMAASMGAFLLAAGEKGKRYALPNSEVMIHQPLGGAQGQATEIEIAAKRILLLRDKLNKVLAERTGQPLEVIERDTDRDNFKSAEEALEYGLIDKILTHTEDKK
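FRET quenching reversal measured ClpP activation: 10 microg/mL B. subtilis ClpP at pH 8 with the FRET-FV decapeptide, read at 430 nm after 320 nm excitation. The 20-min minus 0-min signal was scaled between DMSO/no-enzyme wells and ADEP (5.8 microM final).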
TRPML1 ag = qHTS for Agonists of the Human Mucolipin Transient Receptor Potential 1 (TRPML1); Mucolipin-1 (Homo sapiens), Q9GZU1; TRPML1-expressing cells, Ca2+ dye fluorescence, FDSS; host cell line not named in the record; reference of the full effect not given here; activation, % (no concentration beside the values); 0.12% of 410,000 active; AID 624414, 2012; in the data active = activation above about 50%; inconclusive = about 30% to 50%; inactive = below about 30%; further: 0% is about no effect; the text of the record puts the active cut at 80%
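Kinetic FDSS Ca2+ read in Tet-induced TRPML1-DL cells (ABD Ca8 dye plus quencher, 45-90 min RT loading): baseline, then compound, then 110 s agonist window; EC80 agonist 54-4 at 4uM final added afterwards for a 110 s antagonist window.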
TRPML1 inh = qHTS for Inhibitors of the Human Mucolipin Transient Receptor Potential 1 (TRPML1); Mucolipin-1 (Homo sapiens), Q9GZU1; 0.02% of 390,000 active; activity change, negative = inhibition, % (concentration not given with the values); TRPML1-inducible cells, Ca2+ dye fluorescence, FDSS; hits give low values; inhibition of EC80 agonist-evoked calcium signal; AID 624415, 2012; in the data active means activity change below about -50%; inconclusive means about -30% to -50%; inactive means above about -30%;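 further: stimulus is agonist 54-4 at its EC80 concentration; on the % scale 0 is the no-effect control and ±100 the full control effect; compound concentration not given in the record; the text of the record puts the active cut at -80%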
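TRPML1-DL cells, Tet-induced overnight (~16 h, 37 °C) at 1,500 cells/well, were loaded with Ca8 no-wash dye plus quencher for 45-90 min at room temperature. Compounds were pinned during FDSS kinetic reading; agonist 54-4 at EC80 (4 uM final) then added.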
TRPV1 potentiator = HTS Assay for Compounds that Act as Potentiators of the Vanilloid Receptor 1. Transient receptor potential cation channel subfamily V member 1 (Homo sapiens), Q8NER1. potentiation, % at 8.33 µM. TRPV1-expressing cells, Fluo-8 calcium influx, capsaicin EC20 potentiation; host cell line not named in the record; control for the full effect not named in the record. 0.02% of 320,000 active; active means potentiation above 80%; inconclusive means 30% to 80%; inactive means below 30%; further: 0% is about no effect
Target sequence (Q8NER1 whole entry, looked up): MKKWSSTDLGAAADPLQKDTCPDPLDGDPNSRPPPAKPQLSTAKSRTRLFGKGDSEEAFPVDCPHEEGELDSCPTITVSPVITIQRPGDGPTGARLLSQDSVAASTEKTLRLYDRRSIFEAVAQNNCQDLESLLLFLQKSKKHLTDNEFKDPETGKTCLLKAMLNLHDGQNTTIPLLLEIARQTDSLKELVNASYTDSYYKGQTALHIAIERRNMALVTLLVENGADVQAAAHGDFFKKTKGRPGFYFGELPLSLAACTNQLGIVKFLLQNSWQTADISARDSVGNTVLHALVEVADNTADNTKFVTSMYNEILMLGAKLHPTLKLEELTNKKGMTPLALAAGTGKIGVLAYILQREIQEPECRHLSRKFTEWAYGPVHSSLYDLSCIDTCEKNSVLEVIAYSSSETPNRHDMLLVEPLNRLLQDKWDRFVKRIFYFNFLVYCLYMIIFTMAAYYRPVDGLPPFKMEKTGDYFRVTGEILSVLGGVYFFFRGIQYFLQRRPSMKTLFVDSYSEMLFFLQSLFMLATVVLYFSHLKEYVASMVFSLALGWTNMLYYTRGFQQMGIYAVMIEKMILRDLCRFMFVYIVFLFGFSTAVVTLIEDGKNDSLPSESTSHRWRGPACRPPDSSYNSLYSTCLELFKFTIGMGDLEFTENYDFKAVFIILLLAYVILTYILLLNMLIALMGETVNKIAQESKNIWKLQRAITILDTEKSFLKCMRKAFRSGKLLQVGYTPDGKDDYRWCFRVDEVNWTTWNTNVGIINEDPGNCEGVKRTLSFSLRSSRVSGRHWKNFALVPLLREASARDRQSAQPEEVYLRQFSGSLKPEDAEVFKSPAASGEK
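Cells expressing TRPV1 were dye-loaded with Fluo-8 and read kinetically: 10 s baseline, 3 min after compound (agonist portion), then 2 min after EC20 capsaicin (allosteric enhancer portion). Calcium-bound dye fluorescence at 480/520 nm.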
PINK1 modulator = A Quantitative High throughput Screen to Identify Chemical Modulators of PINK1 Expression; PINK1 immunofluorescence, high-content cytometry, 24 h; Potency, µM (doses to about 76.6 µM), for the others: at the highest dose activation (PINK1 increase), hits mostly activators; 0.2% of 410,000 active; AID 624263, 2012; active = well fitted activation curve with a large enough effect; inconclusive = small, poorly fitted or top-dose-only effect; inactive = flat fitted curve, though single readings scatter; cell line not stated here;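 further: potency means the concentration at half of the fitted maximal effect; % of control where 0% means no effect; nearly all actives have a fitted effect of over 65% in size; a mitochondrial uncoupler was the plate control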
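Readout is PINK1 immunofluorescence, quantified alongside mitochondrial, cell and nuclear markers by laser-scanning microplate cytometry. Cells from a stable line were exposed to compound titrations (5 concentrations) for 24 hours, with CCCP controls.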
Menin-MLL FL inh = qHTS Assay for Inhibitors Targeting the Menin-MLL Interaction in MLL Related Leukemias: Competition With Fluorescein Labeled MLL-derived Peptide; AID 1766, 2009; 290,000 tested, under 10 active; FP activity change, % at 61.4 µM; Fluorescence polarization, fluorescein-MLL peptide displacement from menin; inconclusive = falling polarisation curve, or a change in total fluorescence; inactive = total fluorescence flat and polarisation flat or rising; no compound was filed as active; the % refers to the polarisation; negative = inhibition;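 further: % of control where 0% means no effect; inhibitors lower the polarisation; unlabelled MLL peptide was the positive control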
Sfp inh = qHTS Assay for Inhibitors of Bacillus subtilis Sfp phosphopantetheinyl transferase (PPTase) | 4'-phosphopantetheinyl transferase ffp (Bacillus subtilis), Q9F4F7 | Biochemical Sfp PPTase activity, qHTS | Potency, µM, without a hit: max response, negative = inhibition, hits mostly inhibitors | 3.5% of 310,000 active; active means well fitted inhibition curve with a large enough effect; inconclusive means small, poorly fitted or top-dose-only effect, or another doubt; inactive means no such curve, though single readings can be large or run the other way;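 further: the enzyme is Sfp with the accession as filed and its product quenches rhodamine fluorescence; potency means the concentration at half of the fitted maximal effect; 0% = enzyme reaction without inhibitor and -100% = no enzyme wells; top concentration of the series not given in the record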
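Fluorescence-quenching assay with 15 nM Sfp, 5 uM rhodamine-CoA and 12.5 uM BHQ-2-labelled ybbR peptide in pH 7.6 Hepes/MgCl2 buffer. Enzyme was pre-incubated with compound for 15 min at room temperature. Rate was taken from the 30-min fluorescence change (525/598 nm).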
* = called active by the depositor; ? = inconclusive; / = no result given; [ ] = another dose, or the depositor's remark. Outcome played no part in choosing rows. Share with any hit: about 4.4%.

mol,ClpP mod,TRPML1 ag,TRPML1 inh,TRPV1 potentiator,PINK1 modulator,Menin-MLL FL inh,Sfp inh
Cc1cccc(C(=O)NCC(=O)OCC(=O)c2ccc3ccccc3c2)c1,?,0.1,/,/,-0.7%,/,/
COc1ccc(-c2nc(S(=O)(=O)c3ccc(C)cc3)c(NCc3ccccc3)o2)cc1,3.5%,1.1,5,/,0.3%,/,/
CC1=C(C(=O)Nc2ccccc2)C(c2ccccc2C)n2nc(SCC(=O)c3ccc(C)cc3)nc2N1 (configuration not stated),?,2.7,-7,/,3.6%,/,/
O=C(NCc1ccco1)c1cc2ccccc2o1,-1.3%,-0.7,-24,-4,-0.5%,2.9,-8%
CCOc1ccc(NC(=S)NCc2ccco2)cc1,/,-0.9,-17,-5,0.7%,0.0,11%
O=S(=O)(N/N=C/c1ccc(N2CCOCC2)cc1)c1ccc(Br)cc1,0.6%,-0.6,-4,-2,1.5%,-2.1,2%
O=C(CCCCCNC(=O)c1ccccc1Br)N=Nc1c(O)[nH]c2ccccc12,-1.3%,1.4,13,0,-0.2%,-9.8,-1%
COc1ccc(NCc2cccn2-c2nnc(N3CCCCCC3)s2)cc1,0.3%,2.8,-1,/,-3.6%,/,/
CC(C)Oc1ccc(C(=O)O)cc1,/,1.8,16,14,0.9%,3.1,11%
CN1CCN(c2ccc(NC(=S)NC(=O)c3cccc4c(Cl)cccc34)cc2)CC1,-3.1%,0.5,20,4,4.9%,-0.2,4%
COCCNC(=O)CN1C(=O)CSc2ncccc21,-0.7%,-0.1,-5,0,1.9%,2.5,15%
CC(=O)c1cnc2nc(C(F)(F)F)nn2c1C,11%,0.4,13,?,0.9%,-0.4,8%
COc1ccc(NC(=O)CCCSc2ccccc2)cc1S(N)(=O)=O,/,-0.2,17,24,1.4%,-2.8,11%
COC(=O)C(CCSC)NC(=O)CNS(=O)(=O)c1ccc(Cl)cc1 (configuration not stated),0.7%,-0.4,8,3,-0.6%,4.9,-18%
Nn1c(SCc2cn3ccccc3n2)nnc1-c1ccncc1,/,-0.1,-5,9,0.0%,2.3,6%
CCCCN(C)C(=O)Cn1c(C2CC(=O)N(c3ccc(C)cc3)C2)nc2ccccc21 (configuration not stated),0.5%,-1.0,18,/,-0.5%,/,/
Cc1ccc(C)c(N2CCN(S(=O)(=O)c3ccc(-c4coc(C)n4)cc3)CC2)c1,-9.8%,2.7,-7,/,-4.7%,/,/
CCOP(=O)(OCC)C(Nc1ccccc1)c1cccnc1 (configuration not stated),-0.8%,-0.7,-20,5,4.2%,-1.8,7%
COc1ccc(C2c3c(ccc4ccccc34)Oc3ncn4nc(-c5ccco5)nc4c32)cc1 (configuration not stated),-8.5%,1.2,-18,-5,4.1%,0.9,18%
O=C(CSc1nnnn1-c1ccc(F)cc1)Nc1nc2ccccc2s1,0.2%,0.4,-6,-2,5.6%,3.3,7%
CCn1c(C)nnc1SCC(=O)Nc1ccc(N2CCOCC2)cc1,-1.9%,0.0,2,2,-2.1%,3.9,-4%
c1cc2c3c(cccc3c1)NN=N2,-2.1%,0.3,-13,/,-6.6%,/,/
O=C(NCCc1ccccc1C(F)(F)F)C1CCC(=O)N(C2CC2)C1 (configuration not stated),-2.0%,1.4,0,-14,-2.8%,-3.9,7%
CCc1ccc(C(=O)CN2C(=O)C(C)N(c3ccc(C)cc3)C2=O)cc1 (configuration not stated),/,0.3,4,0,2.9%,3.1,-14%
CCOC(=O)c1c(CC(C)C)csc1NC(=O)c1ccccc1C(=O)O,-0.1%,-0.2,1,-13,-1.0%,-0.1,1%
Cc1onc(-c2ccccc2)c1C(=O)Oc1cccnc1,0.4%,0.7,-14,8,/,0.1,9%
CC(=O)c1ccc(Cc2ccc(C(C)=O)cc2)cc1,/,1.3,21,-6,-1.4%,2.1,1%
CCC(OC(=O)CN1C(=O)C(=O)c2ccccc21)C(=O)Nc1ccccc1OC (configuration not stated),/,3.1,3,-8,0.3%,-5.2,11%
CCCCOC(=O)C(C)Nc1n[nH]c(=S)[nH]c1=O (configuration not stated),0.5%,0.7,-7,3,-3.9%,6.4,50µM*
Cc1ccc(SCC(=O)NC2CC3CCC(C2)N3C)cc1 (configuration not stated),/,0.0,-3,0,1.1%,-4.0,0%
O=C(COc1ccccc1O)NC1CCCC1,/,-0.6,-8,-10,3.3%,/,/
CC(=O)c1ccc(S(=O)(=O)N2CCN(c3ccnc4cc(Cl)ccc34)CC2)cc1,-0.4%,-0.5,-5,/,1.5%,/,/
Cc1ccc(C)c(N=C2NC(=O)CS2)c1,2.0%,-0.6,48,2,1.1%,3.9,6%
CC1(C)Cc2nc3nc(SCC(=O)NCc4ccccc4)n(-c4ccccc4)c(=O)c3cc2CO1,/,/,/,5,/,4.3,26%
COc1ccc(C(=O)C2CCCN(S(=O)(=O)c3cccnc3)C2)c(C)c1 (configuration not stated),/,0.7,-14,-5,-0.9%,0.9,6%
CN1CCN(c2ccccc2NC(=O)c2ccc([N+](=O)[O-])o2)CC1,-1.6%,0.1,-1,?,-0.4%,/,-1%
Cc1ccc(S(=O)(=O)NCC(=O)N(CC(=O)NCC2CCCO2)c2cccc(F)c2)cc1 (configuration not stated),/,-0.4,11,0,-1.3%,3.7,21%
Cc1ccc(NC(=O)COC(=O)Cc2ccsc2)cc1S(=O)(=O)N(C)C,-2.7%,4.4,6,1,-0.3%,-4.0,?
O=C1Nc2ccccc2C(O)(C(=O)N2CCCCC2)N1c1ccccc1 (configuration not stated),-4.2%,0.7,-11,10,-0.2%,0.2,20%
COc1cc(CN(C(=O)Nc2cccc(Cl)c2)c2ccccn2)cc(OC)c1OC,-0.4%,-0.2,3,/,-1.3%,/,/
Cc1ccc(CN2CCN(/N=C\c3cccc([N+](=O)[O-])c3)CC2)cc1,/,-0.4,0,-9,1.0%,-3.4,-6%
O=C(CCc1ccc(S(=O)(=O)N2CCOCC2)cc1)Nc1ccc(F)c(F)c1F,-0.6%,-0.6,32,/,-0.1%,/,/
CCCCCCn1cc(CN2CC(N3CCCCC3)CS2(=O)=O)nn1 (configuration not stated),-3.1%,-0.8,/,/,1.6%,/,/
Cc1ccc(/C=N/Nc2cc(C)nc(N3CCOCC3)n2)cc1,-18%,1.0,60,-28,10%,4.4,7%
Cc1ccnc(NC(=O)Cn2ccc([N+](=O)[O-])n2)c1,1.7%,0.0,-6,-1,-1.4%,5.7,20%
Cc1cccc2cc(/C=N/Nc3ccc(C(=O)O)cc3)c(Cl)nc12,2.6%,0.6,57,26,2.7%,?,-5%
CCN(CC(=O)Nc1ccc(NC(C)=O)cc1)C(=O)C1CC(=O)N(CCc2ccc(OC)c(OC)c2)C1 (configuration not stated),-2.2%,0.0,-2,4,-1.5%,/,/
CC(Nc1nc(-c2cccnc2)nc2ccccc12)c1ccccc1 (configuration not stated),-5.8%,-0.5,4,/,0.8%,/,/
Cc1ccccc1N1CCN(Cc2ccc([N+](=O)[O-])o2)CC1,/,-0.3,32,9,0.3%,-1.7,-26%
Cc1cccc(NC(=O)Cn2c(=O)n(Cc3ccc4c(c3)OCO4)c(=O)c3ccccc32)c1,?,-0.3,-28,/,0.7%,/,/
C=CCC(=O)NC1CC(C)(C)Cc2c1cnn2-c1ccc(C)cc1 (configuration not stated),-0.1%,-0.8,12,-2,0.1%,0.0,16%
Cc1sc2ncnc(NCCN3CCOCC3)c2c1C,-0.4%,-0.8,10,9,1.1%[38.3 µM],3.4,-24%
Cc1ccc(-c2cc(C(=O)N3CCCC3)c3ccccc3n2)s1,11%,-0.2,0,1,0.6%,/,-6%
O=C1C=C(NCc2ccccc2)C2(CCCCC2)O1,-0.1%,-0.6,9,-7,0.9%,-0.5,3%
Cn1c(=O)[nH]c(=O)c2c1nc(Br)n2Cc1ccc(Cl)cc1,-1.4%,-0.3,-8,/,5.6%,/,/
Cc1ccc(C)c(OC(=O)CN2C(=O)c3ccccc3C2=O)c1,0.2%,0.4,-4,-13,0.6%,1.2,4%

(further entries)
mol,ClpP mod,TRPML1 ag,TRPML1 inh,TRPV1 potentiator,PINK1 modulator,Menin-MLL FL inh,Sfp inh
O=C(NC(=S)N1CCOCC1)c1ccc([N+](=O)[O-])cc1,-2.5%,0.4,-8,?,-0.3%,0.2,-12%
COc1ccc(/C=C/S(=O)(=O)NCc2ccccc2)cc1OC,/,0.3,2,-13,-0.9%,-3.9,-3%
O=C(NCC1CCCO1)C1CCCN(S(=O)(=O)c2cccc3nsnc23)C1 (configuration not stated),2.1%,-0.6,0,10,-1.4%,4.5,31%[activator]
O=C(NCc1ccccc1Cl)c1cc(C(=O)C2CC2)c[nH]1,-0.3%,0.5,-10,0,7.5%,2.1,4%
CS(=O)(=O)N1CCCC(C(=O)Nc2ccc3c(c2)OCCO3)C1 (configuration not stated),/,0.1,-14,10,3.6%,4.2,3%
CC(C)(C)c1cc(CCC(=O)N2CCNCC2)c(C(C)(C)C)cc1O,-0.9%,5.8,-12,-3,1.2%,1.5,-5%
O=C(NCc1ccc(Cl)cc1)N1CCN(C(=O)c2ccccc2)CC1,1.5%,-0.1,-19,/,1.3%,/,/
c1ccc(NC2=NCCN2CCC2CCCCC2)cc1,-2.0%,-0.6,25,28,2.3%,-3.3,4%
CC(/C=N/NC(=O)c1ccncc1)=C\c1ccc(C(C)C)cc1,?,3.9,21,0,-3.1%[38.3 µM],5.8,10%
COc1cccc(CNS(=O)(=O)c2cc(CN3C(=O)c4cccnc4C3=O)ccc2OC)c1,-0.2%,-0.4,2,4,1.4%,-5.2,0%
